Sa growth inh = inhibitors of Staphylococcus aureus growth at 42 °C | 170,000 compounds, 0.53% hits | S. aureus RN4220 growth, OD600, 20 h; stronger effect = lower value | relative growth, % (no concentration beside the values);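 active = growth at 42 °C up to 50% and 20 or more points under that at 30 °C, or under 10% at both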;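 note: 300 nL library stock went into each well; scaled to the means of positive and negative controls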
GIV-Gai inh = GIV-Galpha-i interaction inhibition. percent of control (FP), % (no concentration beside the values). P08753. AID 1224905. 210,000 compounds, 0.42% hits. Galpha-i3/FITC-GIV peptide fluorescence polarization, 90 min; stronger effect = lower value; scaled: aluminum fluoride 0%, vehicle 100%;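 active = replicate mean at 85% of control or lower, very high polarization wells dropped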;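 note: wells of about 15 µL received 100 nL stock; the first replicate is given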
Target sequence (P08753 whole entry, looked up): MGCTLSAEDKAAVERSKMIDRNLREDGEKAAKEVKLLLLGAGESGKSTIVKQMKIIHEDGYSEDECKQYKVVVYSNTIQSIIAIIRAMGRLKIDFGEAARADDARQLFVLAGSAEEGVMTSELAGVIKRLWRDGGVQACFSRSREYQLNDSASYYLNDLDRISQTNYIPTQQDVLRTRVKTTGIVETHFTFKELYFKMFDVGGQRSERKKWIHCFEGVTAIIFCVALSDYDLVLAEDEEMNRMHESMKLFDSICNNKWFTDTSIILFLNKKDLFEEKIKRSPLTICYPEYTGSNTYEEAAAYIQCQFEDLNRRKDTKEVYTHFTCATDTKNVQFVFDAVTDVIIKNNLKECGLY
HCMV UL50-53 inh = cytomegalovirus nuclear egress complex inhibition; 190,000 compounds, 0.15% hits; AID 1918969; inhibition, % (no concentration beside the values); HTRF UL50-UL53 interaction, normalized percent inhibition;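 active = both replicates at 50% or more, plus weaker picks with an unusually low signal ratio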;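 note: stock transfer was 100 nL into about 20 µL; 0% = negative control wells and 100% = wells with untagged competitor protein; inactives centre near -12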
Sa growth inh second temp = second read-out of Sa growth inh, no call of its own (marks repeat the call); relative growth, %; measured here: growth at 30 °C;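 optical density after 20 h as mean of two plates; 100% = untreated growth and lower means inhibition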
Starred values were filed as active, the others as inactive; . = no result given; & = joins results of further samples.

entry	canonical_smiles	Sa growth inh	Sa growth inh second temp
1	Cc1oc(-c2ccc(C(=O)NCCN3CCCCC3)cc2)nc1COc1ccccc1	108	90
2	COc1cc(/C=N/N=C(N)N)ccc1OC(=O)c1ccc(C)cc1	-0.7*	-0.6*
3	Cc1cccc(NC(=O)NCCn2c(=O)oc3ccc(C)cc32)c1	119	94
4	CC(NC(=O)CCCC1=NS(=O)(=O)c2ccccc2N1)c1ccccc1 (stereo unspecified)	118	89
5	Nc1sc(-c2ccccc2)c(Cc2ccccc2)c1C(=O)O	109	34
6	COc1ccc(CNC(=O)c2ccc(-n3nnc4cccnc43)cc2)c(OC)c1	.	.
7	CCOC(=O)c1ccc(NC(=O)c2ccc(NC(=O)C3CCCO3)cc2)cc1 (stereo unspecified)	94	85
8	Cc1c(C(=O)NCc2ccc(N3CCN(C)CC3)cc2)cnn1-c1ccc(Cl)cc1	124	91
9	CC1CC2(NC(=O)NC2=O)C(C)CN1C (stereo unspecified)	98	99
10	CCc1c(CSC(=N)N)csc1C	95	94

entry	GIV-Gai inh	HCMV UL50-53 inh
1	100	-14
2	97	-23
3	100	-8
4	109	.
5	102	.
6	123	-6
7	100	-22
8	99	-11
9	100	-21
10	104	-13

Some entries already given with just GIV-Gai inh and Sa growth inh.
#	molecule	GIV-Gai inh	Sa growth inh
10	CCc1c(CSC(=N)N)csc1C	104	95
9	CC1CC2(NC(=O)NC2=O)C(C)CN1C (stereo unspecified)	100	98
1	Cc1oc(-c2ccc(C(=O)NCCN3CCCCC3)cc2)nc1COc1ccccc1	100	108
2	COc1cc(/C=N/N=C(N)N)ccc1OC(=O)c1ccc(C)cc1	97	-0.7*

Next entries
entry	canonical_smiles	Sa growth inh	Sa growth inh second temp
11	Clc1cccc(C(c2nnc(-c3ccccc3)o2)N2CCN(c3ccccc3)CC2)c1 (stereo unspecified)	98	100
12	Cc1cccc(NC(=O)C2COc3ccccc3O2)c1 (stereo unspecified)	.	.
13	CC(=O)N1CCSc2ccc(S(=O)(=O)Nc3c(C)cccc3C)cc21	.	.
14	COc1ccc(CNS(=O)(=O)c2ccc3c(c2)NC(=O)C(C)C(=O)N3)cc1 (stereo unspecified)	78	89
15	CCOC(=O)N1CCN(c2nc(-c3ccccc3)c3ccccc3n2)CC1	.	.
16	O=S(=O)(Nc1ccc(Cn2cnc(-c3nc(-c4ccc(F)cc4)no3)c2)cc1)c1ccccc1F	.	.
17	CCCn1cnc2nc(CSc3ccccc3NC(=O)Nc3cccc(F)c3)cc(=O)n21	.	.
18	COc1ccc2c(C)cc(SCC(=O)Nc3nsc(-c4ccc(C(C)(C)C)cc4)n3)nc2c1	89	102
19	COCCOC(=O)C1=C(C)NC2=C(C(=O)CC(c3ccc(Cl)cc3)C2)C1c1ccc(Br)cc1 (stereo unspecified)	.	.
20	NC(=O)c1ccccc1OCCOc1ccccc1	89	93

entry	GIV-Gai inh	HCMV UL50-53 inh
11	109	-12
12	107	-3
13	105	-12
14	99	7
15	99	7
16	113	-7
17	99	3
18	108	23
19	114	-4
20	.	-20

One compound at a time, from the list above. Screens in order: Sa growth inh, Sa growth inh second temp, GIV-Gai inh, HCMV UL50-53 inh
COc1ccc2c(C)cc(SCC(=O)Nc3nsc(-c4ccc(C(C)(C)C)cc4)n3)nc2c1 reads 89, 102, 108, 23
COc1ccc(CNS(=O)(=O)c2ccc3c(c2)NC(=O)C(C)C(=O)N3)cc1 (stereo unspecified) reads 78, 89, 99, 7

In another format: 2 of the compounds above
| cpd | Structure | Sa growth inh | Sa growth inh second temp | GIV-Gai inh | HCMV UL50-53 inh |
| --- | --- | --- | --- | --- | --- |
| 11 | Clc1cccc(C(c2nnc(-c3ccccc3)o2)N2CCN(c3ccccc3)CC2)c1 (stereo unspecified) | 98 | 100 | 109 | -12 |
| 12 | Cc1cccc(NC(=O)C2COc3ccccc3O2)c1 (stereo unspecified) | . | . | 107 | -3 |

(more compounds)
entry	canonical_smiles	Sa growth inh	Sa growth inh second temp
21	CCOc1ccccc1C1C2=C(CC(c3ccc(OC)c(OC)c3)CC2=O)Nc2onc(C)c21 (stereo unspecified)	.	.
22	CCOc1ccc(NC(=O)Cn2c(=O)n(Cc3nc(-c4ccccc4)no3)c(=O)c3cc4c(cc32)OCO4)cc1	77	89
23	Cc1noc(C)c1NC(=O)NC(c1ccccc1)c1ccccc1	91	88
24	C=CCNC(=S)NCc1ccccc1	90	86
25	CNC(=O)c1ccc2c(c1)N=C(C)c1c(C)ccc(C)c1S2	96	68
26	C[C@@H]1CCC2[C@](C)(CO)[C@@H](O)CC[C@]2(C)[C@@]12CCC1(COC(=O)C1)O2 (stereo partly specified)	107	91
27	COc1ccc(NC(=O)CN(C)C2CCCc3ccccc32)c(OC)c1 (stereo unspecified)	101	75
28	CCOc1ccccc1CNC(=O)c1ccc2nc(N3CCC(C)CC3)sc2c1	102	85
29	CCOC(=O)C1CCN(c2nc3c(S(=O)(=O)c4ccc(CC)cc4)nnn3c3ccc(Cl)cc23)CC1	89	83
30	CCC(C)(C)NCC(=O)Nc1ccccc1Br	146	89

entry	GIV-Gai inh	HCMV UL50-53 inh
21	108	-12
22	106	.
23	103	-29
24	106	-11
25	105	-11
26	105	-19
27	.	-19
28	100&100	-30&-4
29	109	6
30	.	-2

Further structures
entry	canonical_smiles	Sa growth inh	Sa growth inh second temp
31	Oc1ccccc1C1=Nc2ccccc2N=C(c2ccc(Br)cc2)C1	.	.
32	Cc1[nH]n2c(=O)cc(-c3ccccc3Cl)nc2c1-c1ccccc1	32	25
33	CN(C)c1ccc(C2OCCO2)cc1	97	80
34	C=CCn1c(C)cc(C(=O)COC(=O)COc2ccccc2C#N)c1C	95	88
35	O=C(CSc1ncn[nH]1)NC1CCCc2ccccc21 (stereo unspecified)	109	83
36	CC(C)CC(C(=O)O)N1C(=O)C2CC=CCC2C1=O (stereo unspecified)	123	89
37	Cc1ccc(Cl)cc1N1CCN(C(=O)c2c(C)oc3ncnc(N4CCCCC4)c23)CC1	86	95
38	Cc1ccc(S(=O)(=O)CCSC(=N)N)cc1	88	88
39	CCCn1c(SCC(=O)N2CCCC2)nnc1C(C)C	91	89
40	COc1ccc2cc3c(N)nn(C(=O)c4ccccc4Cl)c3nc2c1	108	87

entry	GIV-Gai inh	HCMV UL50-53 inh
31	106&91	-8
32	106&102	-10&9
33	.	-54
34	.	-30
35	.	-15
36	.	-19
37	109	.
38	101	2
39	97	-17
40	106&97	-68&-82

Other records
entry	canonical_smiles	Sa growth inh	Sa growth inh second temp
41	Fc1ccc(C2CC(c3ccc(Cl)cc3)=Nc3nc(-c4ccccc4)cn32)cc1 (stereo unspecified)	94	48
42	Cc1oc(C)c2c(=O)cc(-c3ccc4c(c3)OCO4)cc(OC(=O)c3cccc(Br)c3)c12	108	95
43	O=C(NC(=NCc1ccncc1)Nc1cccc(C(F)(F)F)c1)c1ccc2c(c1)OCO2	.	.
44	CCN(CC)C(=O)Cn1c(=O)c2ccccc2n2c(=S)sc(-c3ccccc3F)c12	.	.
45	Cc1ccc2c(Cl)c(C(=O)N(Cc3cccs3)C3CCS(=O)(=O)C3)sc2c1 (stereo unspecified)	124	83
46	O=C(NCC1CCCO1)c1cc2c(=O)n3ccccc3nc2s1 (stereo unspecified)	77	57
47	Cc1nn2c(C)c(C(=O)NCc3cccc(Br)c3)cnc2c1-c1ccccc1	96	93
48	CC(C)c1nn2c(=O)cc(COC(=O)c3ccc(NC(=O)c4cccs4)cc3)nc2s1	105	89
49	Clc1ccc2c(c1)N=C(N1CCNCC1)c1ccccc1N2	.	.
50	COCCNc1nc2c(c(=O)n(C)c(=O)n2C)n1Cc1c(F)cccc1Cl	102	82

entry	GIV-Gai inh	HCMV UL50-53 inh
41	126	.
42	101	0
43	103	-4
44	121	-41
45	98	.
46	97	-59
47	100	.
48	102	.
49	103	0&-18
50	107	-33

Continued:
entry	canonical_smiles	Sa growth inh	Sa growth inh second temp
51	CN(C)CCNC(=O)c1cc2ccccn2n1	.	.
52	COc1ccc(Cl)cc1NC(=O)c1c(NCc2ccc(C)o2)sc2c1CCC(C)C2 (stereo unspecified)	83	88
53	CCc1nc2sc(C)c(C)c2c(=O)n1N	100	120
54	CCOC(=O)c1cnc(SCC(=O)OCN2C(=O)c3ccccc3C2=O)nc1N	101	94
55	CCCCCCSc1nnc(/N=C/NO)s1	88	64
56	Cc1cccc(NC(=O)C2CCCN(c3cnccn3)C2)c1 (stereo unspecified)	113	95
57	COc1ccc(S(=O)(=O)c2cnc3cc(OC)c(OC)cc3c2N2CCCC(C)C2)cc1 (stereo unspecified)	79	64
58	COc1cc(C2NC(=O)NC(C)=C2C(=O)OCC2CCCO2)ccc1OCc1ccccc1 (stereo unspecified)	.	.
59	CSC(SC)=C1C(=O)OC(C)(C)OC1=O	97	91
60	CN(C(=O)COc1nnc(-c2cccs2)c(-c2cccs2)n1)c1ccccc1	95	88

entry	GIV-Gai inh	HCMV UL50-53 inh
51	101	-35
52	104	.
53	.	2
54	.	-16
55	104	-4
56	99	-4
57	109	14
58	101	-12
59	96	-10
60	.	-91

Other entries.
entry	canonical_smiles	Sa growth inh	Sa growth inh second temp
61	Cc1cccc(NC(=O)COC(=O)Cn2cnc3ccccc3c2=O)c1	85	88
62	CCCN(CCC)C(=O)C1CCCN(c2ccc(-c3ccc(C)cc3)nn2)C1 (stereo unspecified)	.	.
63	CCN(CC)S(=O)(=O)c1ccc(C(=O)OCCN2C(=O)c3cccc4c(N5CCOCC5)ccc(c34)C2=O)cc1	.	.
64	COc1ccc(Sc2ccccc2COC(C)=O)c(C(=O)O)c1	99	89
65	c1ccc(CNC2=NCCCCC2)nc1	124	101
66	O=C(c1cccc(N2C(=O)c3ccccc3C2=O)c1)N1CCCCC1	101	98
67	CCOc1ccc(NC(=O)CC2Oc3ccccc3NC2=O)cc1 (stereo unspecified)	113	70
68	NNC(=O)c1nnn(-c2nonc2N)c1CNc1ccccc1	81	89
69	CC(C)(C)OC(=O)N1CCN(c2ccc(NC(=O)c3ccco3)cc2)CC1	90	86
70	CC(C)n1c(C(F)(F)F)nc2cc(C(=O)N3CCOCC3)ccc21	83	85

entry	GIV-Gai inh	HCMV UL50-53 inh
61	.	-13
62	100	-47
63	116	6
64	100	-11
65	.	-8
66	.	-5
67	102	.
68	.	9
69	99	-17
70	100	-42

Next results:
entry	canonical_smiles	Sa growth inh	Sa growth inh second temp
71	COc1ccc(N(CC(=O)Nc2cc(C)ccc2C)S(=O)(=O)c2ccc(OC)c(OC)c2)cc1	98	101
72	COc1ccc(NC(=O)CSc2nnc(-c3cc4ccccc4n3C)o2)c(OC)c1	.	.
73	O=C(Cc1ccccc1)Nc1cccc(-c2cn3cccnc3n2)c1	112	80
74	CCCNC(=O)Nc1ccc(-c2noc(/C=C/c3ccccc3Cl)n2)cc1	.	.
75	Cc1cccc(Nc2nc3ccccc3n3c(N)nnc23)c1	94	88
76	O=C(CNc1ccc(Cl)cc1)N1CCN(c2ccccc2)CC1	100	96
77	COC(=O)CCSc1nc2c3ccccc3ncn2n1	101	83
78	Cc1ccc(NC(=O)C2CCN(S(=O)(=O)c3c(C)nn(C)c3C)CC2)c(Cl)c1	101	84
79	CCOC(=O)N1CCN(C(=O)c2ccc3c(c2)N(Cc2cccc(Cl)c2)C(=O)c2ccccc2S3=O)CC1 (stereo unspecified)	86	88
80	CCOc1ccc(NC(=O)C2CCCN2S(=O)(=O)c2ccc3c(c2)CCCC(=O)N3)cc1 (stereo unspecified)	.	.

entry	GIV-Gai inh	HCMV UL50-53 inh
71	105	12
72	97	4
73	104	.
74	104	-22
75	113	1
76	.	1
77	.	12
78	98	.
79	104	.
80	109	-24

(more compounds)
entry	canonical_smiles	Sa growth inh	Sa growth inh second temp
81	CCc1nn(C(CC)C(=O)NC2CCCC2)c(=O)c2cc3oc(C)cc3n12 (stereo unspecified)	110	85
82	CCCCNC(=O)C1CC(=O)N(CCc2ccccc2)C1 (stereo unspecified)	92	87
83	Cc1c(N2CCN(C(=O)CN3C(=O)C(C)Oc4ccccc43)CC2)c(=O)n(C)c(=O)n1C (stereo unspecified)	.	.
84	COc1ccc(C2C(C#N)=C(C)NC(C)=C2C(=O)Nc2ccccc2)cc1 (stereo unspecified)	97	96
85	Cc1ccc(-n2nc(C)c(C(=O)N3CCN(c4ncccn4)CC3)n2)c(C)c1	86	94
86	S=c1oc2ccccc2n1Cn1c(=S)oc2ccccc21	83	67
87	C=CCn1c(=O)c(C(=O)NC)c(O)c2ccccc21	118	95

entry	GIV-Gai inh	HCMV UL50-53 inh
81	102	.
82	100	-29
83	107	-38
84	.	-41
85	.	-16
86	.	-48
87	97	-7
